Screens as filed in PubChem BioAssay.
VDR inhibitor: blocks the human vitamin D receptor. P11473. VDR-SRC2-3 peptide fluorescence polarization, 2 h. Potency, µM, for the others: max response, negative = inhibition, hits mostly inhibitors. hit rate 0.93% among 400,000; active means well fitted inhibition curve with a large enough effect; inconclusive means small, poorly fitted or top-dose-only effect, or another doubt; inactive means no such curve, though single readings can be large or run the other way; further: series mostly up to about 120 µM
Target sequence (P11473 whole entry, looked up): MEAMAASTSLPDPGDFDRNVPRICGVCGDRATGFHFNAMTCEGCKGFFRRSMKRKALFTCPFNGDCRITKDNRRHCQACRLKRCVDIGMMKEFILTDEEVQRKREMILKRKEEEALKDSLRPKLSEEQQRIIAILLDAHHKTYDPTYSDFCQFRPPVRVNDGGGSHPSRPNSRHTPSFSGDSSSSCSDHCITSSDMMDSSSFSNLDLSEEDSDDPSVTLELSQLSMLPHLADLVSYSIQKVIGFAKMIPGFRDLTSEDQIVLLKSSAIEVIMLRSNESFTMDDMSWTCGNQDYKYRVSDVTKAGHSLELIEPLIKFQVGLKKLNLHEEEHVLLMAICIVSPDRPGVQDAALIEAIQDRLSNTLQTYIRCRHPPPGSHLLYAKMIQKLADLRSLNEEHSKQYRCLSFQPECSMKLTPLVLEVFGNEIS
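Signal is fluorescence polarization, reporting how far test compounds block the interaction of VDR with the SRC2-3 coregulator peptide after a 2 h room-temperature incubation.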
* hit, by the source's call; & = joins results of further samples; [ ] = dose if it differs, or a comment. On the % scale 0 is the no-effect control and ±100 the full control effect; potency means the concentration at half of the fitted maximal effect.

`Cc1ccc(OCCSc2nc3ccccc3n2CC(=O)N2CCCCC2)cc1C` gave VDR inhibitor 6%.
Screening O=C(O)c1ccc2c(c1)nnn2C1CCCCC1 returned VDR inhibitor 0%.
For Cc1cccc(OCC(=O)Nc2nonc2NC(=O)COc2cccc(C)c2)c1 the results were VDR inhibitor -13%.
For CC(=O)N=c1sc2c3ccccc3ccc2n1C the results were VDR inhibitor 3%.
For CN(C)CCn1nnc2c(=O)oc3ccccc3c21 the results were VDR inhibitor -3%.
Screening COc1ccc(-c2nnco2)cc1OC returned VDR inhibitor 14%.
Cc1[nH]c2ccccc2c1/C=N/NC(=O)c1cc(-c2cccs2)[nH]n1 was read as VDR inhibitor 4%.
For O=C1CCCN2N=C(SCC(=O)Nc3cccc(F)c3)SC2=N1 the results were VDR inhibitor -7%.
`O=C(NCCOc1ccccc1)c1ccc2c(c1)OCO2` gave VDR inhibitor 28%.
Cc1c(C)n(C(=O)CSc2nncn2C)c2ccccc12 was read as VDR inhibitor 13%.
For COc1cccc(NC(=O)CN(C)C(=O)c2cc3c(s2)CCC(C)C3)c1 (configuration not stated) the results were VDR inhibitor 6%.
For COc1ccc2cc(-c3csc(-c4cccnc4)n3)ccc2c1 the results were VDR inhibitor 12%.
For CN(C(=O)c1ccc(NC(=O)Cc2cccc(NC(=O)C3CCN(C(=O)C4CCC4)CC3)c2)cc1)C1CC1 the results were VDR inhibitor -11%.
For CCOCCc1nn2c(=O)cc(COC(=O)C(CC)c3ccccc3)nc2s1 (configuration not stated) the results were VDR inhibitor -1%.
For Cc1ccccc1NC(=O)Cc1nnc(SCC(=O)NC2CCCC2)n1C the results were VDR inhibitor 45%[activator].

Brought forward from above: six compounds; new compounds follow.
Cc1c(C)n(C(=O)CSc2nncn2C)c2ccccc12 was read as VDR inhibitor 13%.
For COc1cccc(NC(=O)CN(C)C(=O)c2cc3c(s2)CCC(C)C3)c1 (configuration not stated) the results were VDR inhibitor 6%.
For COc1ccc2cc(-c3csc(-c4cccnc4)n3)ccc2c1 the results were VDR inhibitor 12%.
For CN(C(=O)c1ccc(NC(=O)Cc2cccc(NC(=O)C3CCN(C(=O)C4CCC4)CC3)c2)cc1)C1CC1 the results were VDR inhibitor -11%.
For CCOCCc1nn2c(=O)cc(COC(=O)C(CC)c3ccccc3)nc2s1 (configuration not stated) the results were VDR inhibitor -1%.
For Cc1ccccc1NC(=O)Cc1nnc(SCC(=O)NC2CCCC2)n1C the results were VDR inhibitor 45%[activator].
Screening Cc1cn(C2CC(O)C(CO)O2)c(=O)n(Cc2ccccc2)c1=O (configuration not stated) returned VDR inhibitor -5%.
`O=c1oc(-c2ccccc2)nc2ccsc12` gave VDR inhibitor -5%.
Screening O=C(Nc1ccccc1)OCCCCCOC(=O)Nc1ccccc1 returned VDR inhibitor -25%.
For CCN1CCCC1CN(Cc1cc2ccc(C)c(C)c2[nH]c1=O)C(=O)Nc1ccccc1OC (configuration not stated) the results were VDR inhibitor 1%.
CCSc1nnc(Cc2cc(=O)[nH]c(=O)[nH]2)n1-c1ccc(F)cc1 was read as VDR inhibitor -2%.
`CCOc1ccc(N2C(=O)C3C4C=CC(CC4)C3C2=O)c([N+](=O)[O-])c1` (configuration not stated) gave VDR inhibitor 1%.
`O=C(O)c1cccc(N2C(=O)c3cccc(Oc4ccc(Cl)cc4)c3C2=O)c1` gave VDR inhibitor -9%.
For O=C(OCCN1CCOCC1)c1cccnc1 the results were VDR inhibitor 4%&-13%.
Screening CN(C)S(=O)(=O)c1ccc(-c2csnn2)s1 returned VDR inhibitor -4%.
`Cc1ccc(N(CC(O)Cn2c3ccccc3c3ccccc32)S(C)(=O)=O)cc1` (configuration not stated) gave VDR inhibitor 13%.
Screening COc1ccc(C(=O)Oc2ccc3ccc(=O)oc3c2)cc1 returned VDR inhibitor 2%.
`COC(=O)c1ccc(NC(=O)CSc2nncn2-c2ccccn2)cc1` gave VDR inhibitor -1%.
`C1=C[C@H]2CC[C@@H]1N(c1ccccc1)O2` gave VDR inhibitor -8%.
Screening OCc1cn(-c2ccc(Cl)cc2)nn1 returned VDR inhibitor 16%.
Screening O=C(Nc1nncs1)C1COc2ccccc2O1 (configuration not stated) returned VDR inhibitor 1%.
Cc1nc2ccn(Cc3ccccc3)c(=O)c2cc1C(=O)NCc1ccccc1F was read as VDR inhibitor 9%.
`O=C(O)C1CC(=O)N(Cc2ccccc2)C1` (configuration not stated) gave VDR inhibitor 24%.
Screening CC(=O)ON(C(C)=O)S(=O)(=O)c1ccc(Cl)cc1 returned VDR inhibitor -1%.
`COc1ccccc1CNC(=O)CCC(=O)N1CC(C)Sc2ccccc21` (configuration not stated) gave VDR inhibitor -6%&13%.
For COc1cc2ccccc2cc1C(=O)N1CCCC1 the results were VDR inhibitor -2%.
O=C(CS(=O)(=O)Cc1ccccc1)Nc1nnc(C(F)(F)F)s1 was read as VDR inhibitor -3%.
Screening Cc1c(C(=O)NC2CCCCC2)oc2ccccc12 returned VDR inhibitor -2%.
`CCN(CC)CCN(C(=O)c1ccc(S(=O)(=O)N2CCCCC2)cc1)c1nc2cc3c(cc2s1)OCO3` gave VDR inhibitor -7%.
Screening Cc1nc2sc(-c3ccccc3)cc2c(=O)n1N returned VDR inhibitor -6%.
S=C(Nc1ccc2c(c1)OCO2)N1CCCC1 was read as VDR inhibitor -16%.
Screening Cc1ccc(C(=O)COC(=O)c2cnccn2)cc1[N+](=O)[O-] returned VDR inhibitor -6%.
For FC(F)(F)c1cccc(Oc2cc(C(F)(F)F)nc(-c3ccccn3)n2)c1 the results were VDR inhibitor -14%.
For COc1ccc(CCCC(=O)NC2CCCCC2)cc1 the results were VDR inhibitor 6%.
For CCOc1cc(C(=S)N2CCOCC2)ccc1OC(=O)c1ccccc1 the results were VDR inhibitor -15%.
Screening Cc1c(CC(=O)N2CCN(C(=O)C3COc4ccccc4O3)CC2)c(=O)oc2cc(O)c(Cl)cc12 (configuration not stated) returned VDR inhibitor 3%.
Screening O=C(Cc1csc(-c2ccccc2)n1)Nc1ccc(C(F)(F)F)cc1 returned VDR inhibitor 15%.
`COc1ccc(NC(=S)N2CCCC(c3nc4ccc(C)cc4[nH]3)C2)cc1` (configuration not stated) gave VDR inhibitor -6%.
COc1cc(/C=C2/SC(=S)N(CC(=O)Nc3cccnc3)C2=O)cc(OC)c1OC was read as VDR inhibitor -8%.
For CN(CC(=O)Nc1ccc(F)cc1)CC(=O)N(C)C1(C#N)CCCCC1 the results were VDR inhibitor 14%.
For CC(C)(C)C(=O)C(Cl)C(=O)Nc1ccccc1 (configuration not stated) the results were VDR inhibitor 20µM*.
For CCOC(=O)Cc1csc(NC(=O)CSc2nc(=O)[nH]c3c2CCCC3)n1 the results were VDR inhibitor -3%.
Screening CSCCC(NC(=O)c1ccc([N+](=O)[O-])cc1Cl)C(=O)OCC(=O)N(C)C (configuration not stated) returned VDR inhibitor -1%.
`COC(=O)c1c(-c2ccc(S(C)(=O)=O)cc2)sc2cc(OC)ccc12` gave VDR inhibitor -20%.
For CCOc1ccccc1NC(=O)C1CCN(c2ccc(S(=O)(=O)N3CCCC3)cc2)CC1 the results were VDR inhibitor 13%.
`Cc1ccc(C2CC(c3cccc(NS(C)(=O)=O)c3)=NN2S(C)(=O)=O)cc1` (configuration not stated) gave VDR inhibitor 1%.
For CCCC(=O)n1nc(-c2ccccc2)nc1N the results were VDR inhibitor 2%.
Screening COC(=O)c1ccc(C(=O)OC)c(-n2c(=O)c3ccccc3c3ccccc3c2=O)c1 returned VDR inhibitor inconclusive.
`COc1ccc(-n2c(COc3ccc4ccccc4c3)nnc2SCC(=O)NCc2ccco2)cc1` gave VDR inhibitor 5%.
`Cc1ccc(NC(=O)c2ccc(CSc3ncnc4nc[nH]c34)cc2)c(C)c1` gave VDR inhibitor 16%.
Screening CCn1nnnc1SCC(=O)NNC(=O)C1CCCCC1 returned VDR inhibitor -13%.
O=C(CN1CCOCC1)NC1C2CC3CC(C2)CC1C3 (configuration not stated) was read as VDR inhibitor 0%.
COc1cccc(Cn2c(=O)c(-c3cc(F)cc(F)c3)nc3cnc(N4CCNCC4)nc32)c1 was read as VDR inhibitor 15%.
For Fc1ccc(-c2nc3c(-c4ccccc4)cnn3cc2CCN2CCOCC2)cc1 the results were VDR inhibitor 9%.
N=c1c2c(-c3ccccc3)c(-c3ccccc3)n(Cc3ccco3)c2ncn1Cc1ccco1 was read as VDR inhibitor -15%.
For COCCn1c(SCC(=O)NCCc2ccccc2)nnc1-c1ccco1 the results were VDR inhibitor 18%.
CCc1nnc(NC(=O)c2ccc(-c3ccc([N+](=O)[O-])cc3Cl)o2)s1 was read as VDR inhibitor -5%.
CCCCN1C(=O)c2cccc3cc(O)cc(c23)C1=O was read as VDR inhibitor 1%.
For CN(CC(=O)Nc1cccc(F)c1)C(=O)CC1CCCCC1 the results were VDR inhibitor -16%.
Screening C(=N\Nc1nc(N2CCCC2)nc(N2CCCC2)n1)/c1ccncc1 returned VDR inhibitor -11%.
Screening CCOP(=O)(OCC)c1nc(-c2ccccc2)oc1NCc1ccccc1 returned VDR inhibitor 7%.
`CCOC(=O)N1CCN(CC(O)COc2ccc3c(c2)CCC3)CC1` (configuration not stated) gave VDR inhibitor 5%.
COc1ccccc1NC(=O)C(=O)N1N=C(C(C)C)CC1(O)C(F)(F)F (configuration not stated) was read as VDR inhibitor 12%.
For COc1ccc(C(=O)Nc2ccc(C(=O)O)cc2NC(=O)c2ccc(OC)cc2)cc1 the results were VDR inhibitor -6%.
Nc1nnc(CC(=O)NCc2ccccc2)s1 was read as VDR inhibitor -16%.
For O=C(Nc1cccs1)Nc1ccccc1Br the results were VDR inhibitor -11%.
Screening CCc1cccc(NC(=O)CCCSc2nc3ccccc3[nH]2)c1 returned VDR inhibitor -20%.
Screening O=C(Nc1ccc(Cl)c(C(F)(F)F)c1)c1nc2ccccc2nc1N1CCCCC1 returned VDR inhibitor 10%.
O=c1[nH]c2sc3c(c2c(=O)n1Cc1ccccc1)CCC3 was read as VDR inhibitor 4%.
CN1CCN(C(CNC(=O)c2c(F)cccc2F)c2ccc3c(c2)OCO3)CC1 (configuration not stated) was read as VDR inhibitor -14%.
Screening O=C(Cc1ccc(F)cc1)Nc1cccc(-c2cn3c(n2)SCC3)c1 returned VDR inhibitor -9%.
`O=C(O)CCNc1nc(-c2ccccc2)nc2ccccc12` gave VDR inhibitor 0%.
For CCCCc1ccc(S(=O)(=O)Nc2nnc(C)s2)cc1 the results were VDR inhibitor inconclusive.
Screening Cc1ccc(S(=O)(=O)N2CCCCC2)cc1NC(=O)Cn1cnc2c1c(=O)n(C)c(=O)n2C returned VDR inhibitor -8%.
Screening CCCC(=O)N1CCCC(C(=O)c2cccc(OC(C)C)c2)C1 (configuration not stated) returned VDR inhibitor 7%.
`C=C(C)C1Cc2cc3ccc(=O)oc3cc2O1` (configuration not stated) gave VDR inhibitor -5%.
For COc1ccc(CN2CCN(Cc3ccc4ccccc4c3)CC2)cc1OC the results were VDR inhibitor -24%.
For CCN1C(C#N)=C(C#N)N=C(C)CC1(C)C the results were VDR inhibitor -4%.
`COc1ccc(CCNC(=O)CNS(=O)(=O)c2ccc(Br)s2)cc1OC` gave VDR inhibitor 3%.
For NS(=O)(=O)c1cccc(NC(=O)CC(NC(=O)c2ccccc2Cl)c2ccccc2)c1 (configuration not stated) the results were VDR inhibitor 5%.
For O=C(c1cc2c(s1)CCC2)N1C(=O)c2ccccc2S1(=O)=O the results were VDR inhibitor 2%.

Entries shown so far that have a COOH group:
Screening O=C(O)c1ccc2c(c1)nnn2C1CCCCC1 returned VDR inhibitor 0%.
`O=C(O)c1cccc(N2C(=O)c3cccc(Oc4ccc(Cl)cc4)c3C2=O)c1` gave VDR inhibitor -9%.
`O=C(O)C1CC(=O)N(Cc2ccccc2)C1` (configuration not stated) gave VDR inhibitor 24%.
For COc1ccc(C(=O)Nc2ccc(C(=O)O)cc2NC(=O)c2ccc(OC)cc2)cc1 the results were VDR inhibitor -6%.
`O=C(O)CCNc1nc(-c2ccccc2)nc2ccccc12` gave VDR inhibitor 0%.

The results go on.
O=c1c2ccccc2nc(/C=C/c2ccc([N+](=O)[O-])cc2)n1CCCO was read as VDR inhibitor -14%.
C/C(=N\NC(=O)c1ccc(O)cc1)c1cc2ccccc2o1 was read as VDR inhibitor 4%.
COCCNC(=O)c1ccccc1NS(=O)(=O)c1ccc(Br)s1 was read as VDR inhibitor -4%.
`O=C(Cc1ccc(Cl)cc1)NCCc1cnc[nH]1` gave VDR inhibitor 6%.
`COc1cccc(CC(=O)Nc2c(C(=O)N3CCN(c4ccccc4F)CC3)oc3ccccc23)c1` gave VDR inhibitor 16%.
`O=C(c1ccco1)N1CCN(CC(O)COc2ccc3oc4ccccc4c3c2)CC1` (configuration not stated) gave VDR inhibitor -4%.
Brc1ccc(NCc2cccc3ccccc23)nc1 was read as VDR inhibitor 4%.
Screening O=C(c1ccccc1Cl)N1CCN(c2ncccn2)CC1 returned VDR inhibitor 0%.
`COc1cccc(-n2nnc3c(=O)n(CC(=O)Nc4ccccc4C)cnc32)c1` gave VDR inhibitor -10%.
Screening Cc1ccc(-c2onc3ccc(C4(C)OCCO4)cc23)cc1 returned VDR inhibitor -6%.
`CCC(=O)NC(c1ccco1)c1cc(Cl)c2ccccc2c1O` (configuration not stated) gave VDR inhibitor -17%.
`COc1ccc(S(=O)(=O)N2CCCCC2)cc1NC(=O)c1ccc(N2CCCC2=O)cc1` gave VDR inhibitor 10%.
For O=C(Nc1ccc(Nc2ccccc2)cc1)c1ccc(Cl)cc1Cl the results were VDR inhibitor -2%.
Screening O=C(O)Cn1c(C(=O)Nc2nc(-c3ccccc3Cl)cs2)cc2ccccc21 returned VDR inhibitor 56µM*.
`CS(=O)(=O)N(Cc1ccccc1)c1ccc(C(=O)N2CCN(c3cccc(Cl)c3)CC2)cc1` gave VDR inhibitor 0%.
For CCOC(=O)c1coc(CNC(=O)c2c(C)oc3c2CCCC3)c1 the results were VDR inhibitor -13%.

Not all compounds are listed; rates above refer to the full screens.
